Sfp inh – inhibitors of Bacillus subtilis Sfp phosphopantetheinyl transferase; Q9F4F7; Biochemical Sfp PPTase activity, qHTS; Potency, µM, inactives show max response, negative = inhibition, most hits filed as inhibitors; 3.5% of 310,000 active; active = well fitted inhibition curve with a large enough effect; inconclusive = small, poorly fitted or top-dose-only effect, or another doubt; inactive = no such curve, though single readings can be large or run the other way;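 note: the enzyme is Sfp with the accession as filed and its product quenches rhodamine fluorescence; potency is the fitted concentration of half-maximal effect; 0% = enzyme reaction without inhibitor and -100% = no enzyme wells; top concentration of the series not given in the record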
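After 15 min at room temperature with compound, 15 nM Sfp received 5 uM rhodamine-CoA plus 12.5 uM BHQ-2-ybbR (50 mM Hepes pH 7.6, 10 mM MgCl2). Rate came from the fluorescence difference over 30 min, ex 525/em 598 nm.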
CtBP-E1A blk – inhibitors of CtBP/E1A interaction. 0.49% of 340,000 active. activity change, % (test concentration not listed). AlphaScreen GST-E1A/His-CtBP binding, 1536-well; active compounds read low; control for the full effect not named in the record. AID 651724; in the data active means activity change below about -65%; inconclusive means about -30% to -65%; inactive means above about -30%; note: % is set by controls: 0 for no effect and ±100 for the full control effect
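GST-E1A and His-tagged CtBP (125 nM each as 5X stock) were preincubated with pin-transferred compound for 2 h at 37 °C in the dark, then glutathione donor and nickel acceptor beads were added for 1 h before AlphaScreen reading.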
D2 potentiator – potentiates the human D2 dopamine receptor allosterically. P14416. DiscoveRx D2 beta-arrestin cells, luminescence, 90 min; 100% = 57 uM dopamine signal. potentiation, % (test concentration not listed). 0.23% of 360,000 active. AID 624464; active = potentiation of 50% or more; inconclusive = 30% to 50%; inactive = 30% or less;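 note: compound concentration not given in the record; tested on top of an EC20 dose of dopamine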
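D2 cells co-treated with compound plus 50 nM dopamine (EC20) for 90 min at 37 deg C to detect potentiation. Beta-arrestin recruitment was read as enzyme-fragment luminescence after 1 h at ambient temperature. Full response was set by 57 uM dopamine.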
Six1-Eya2 blk – Six1/Eya2 interaction inhibition; AID 651725; activity change, % (no concentration beside the values); 0.56% of 360,000 active; Q15475+O00167; AlphaScreen GST-Six1/His-Eya2 binding, biochemical; active compounds read low; control for the full effect not named in the record; in the data active = activity change below about -65%; inconclusive = about -30% to -65%; inactive = above about -30%; note: % is set by controls: 0 for no effect and ±100 for the full control effect
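GST-Six1 + His-Eya2 (5X stock: 250/500 nM); Tris pH 8.0, 300 mM NaCl, 0.05% BSA, 0.02% Tween 20; GSH donor/Ni acceptor beads; 1 h 37 °C dark; AlphaScreen readout.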
PINK1 modulator – PINK1 expression modulation; PINK1 immunofluorescence, high-content cytometry, 24 h; Potency, µM (highest dose often 76.6 µM), inactives show at the highest dose activation (PINK1 increase), usual class: activators; 0.2% of 410,000 active; active = well fitted activation curve with a large enough effect; inconclusive = small, poorly fitted or top-dose-only effect; inactive = flat fitted curve, though single readings scatter; cell line not stated here;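 note: potency is the fitted concentration of half-maximal effect; % of control where 0% means no effect; nearly all actives have a fitted effect of over 65% in size; a mitochondrial uncoupler was the plate control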
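Readout is PINK1 immunofluorescence, quantified alongside mitochondrial, cell and nuclear markers by laser-scanning microplate cytometry. Cells from a stable line were exposed to compound titrations (5 concentrations) for 24 hours, with CCCP controls.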
D2 agonist – agonists of human D2 dopamine receptor (beta-arrestin). activation, % (no concentration beside the values). DiscoveRx PathHunter D2 beta-arrestin, luminescence, 90 min; 100% = 57 uM dopamine signal. 0.084% of 360,000 active. P14416. AID 624465; in the data active = activation above about 40%; inconclusive = about 15% to 40%; inactive = below about 15%; note: compound concentration not given in the record; the text of the record calls up to 30% inactive
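DiscoveRx PathHunter D2 beta-arrestin cells (2,100/well) attached overnight, then compound-stimulated 90 min at 37 C in HBSS/10 mM HEPES/0.1% Tween-20 buffer; beta-galactosidase complementation read by luminescence after 1 h at ambient temperature. Dopamine 57 uM final (EC100) as control.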
TRPV1 potentiator – potentiators of human vanilloid receptor 1 (TRPV1); Q8NER1; TRPV1-expressing cells, Fluo-8 calcium influx, capsaicin EC20 potentiation; host cell line not named in the record; control for the full effect not named in the record; potentiation, % at 8.33 µM; 0.02% of 320,000 active; AID 540277; active means potentiation above 80%; inconclusive means 30% to 80%; inactive means below 30%; note: 0% is about no effect
Target sequence (Q8NER1 whole entry, looked up): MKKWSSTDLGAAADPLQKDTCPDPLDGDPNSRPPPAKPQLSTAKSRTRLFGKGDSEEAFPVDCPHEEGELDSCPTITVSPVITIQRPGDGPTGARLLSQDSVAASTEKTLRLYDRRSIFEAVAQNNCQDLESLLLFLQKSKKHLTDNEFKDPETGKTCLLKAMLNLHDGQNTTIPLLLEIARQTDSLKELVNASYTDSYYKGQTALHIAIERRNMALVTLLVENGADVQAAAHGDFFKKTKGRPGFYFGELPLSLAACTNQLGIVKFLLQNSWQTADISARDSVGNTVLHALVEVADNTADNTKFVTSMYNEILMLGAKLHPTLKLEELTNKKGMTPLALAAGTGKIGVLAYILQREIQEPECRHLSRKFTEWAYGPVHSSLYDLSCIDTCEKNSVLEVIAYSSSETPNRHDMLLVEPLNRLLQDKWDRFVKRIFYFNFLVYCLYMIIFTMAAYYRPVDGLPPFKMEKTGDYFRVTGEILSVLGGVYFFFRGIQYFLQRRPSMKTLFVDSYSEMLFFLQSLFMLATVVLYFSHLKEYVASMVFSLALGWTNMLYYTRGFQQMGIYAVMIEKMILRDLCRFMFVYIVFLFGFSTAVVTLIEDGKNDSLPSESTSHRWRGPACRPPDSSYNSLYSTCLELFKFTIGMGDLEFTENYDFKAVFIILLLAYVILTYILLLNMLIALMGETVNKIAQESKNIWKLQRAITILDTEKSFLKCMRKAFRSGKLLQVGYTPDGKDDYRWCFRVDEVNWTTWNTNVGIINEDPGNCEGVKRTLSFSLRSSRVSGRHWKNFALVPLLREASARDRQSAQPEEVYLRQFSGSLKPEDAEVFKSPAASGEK
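Cells expressing TRPV1 were dye-loaded with Fluo-8 and read kinetically: 10 s baseline, 3 min after compound (agonist portion), then 2 min after EC20 capsaicin (allosteric enhancer portion). Calcium-bound dye fluorescence at 480/520 nm.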
* marks the source's active call; other numbers are inactive results; & = joins results of further samples; [ ] = another dose, or the depositor's remark.

Results for COc1ccc(N(CC(=O)NCc2ccc3c(c2)OCO3)S(C)(=O)=O)cc1OC ?
Sfp inh: 15%; CtBP-E1A blk: 2; D2 potentiator: -1; Six1-Eya2 blk: 3; PINK1 modulator: -3.6%[38.3 µM]; D2 agonist: -0.5; TRPV1 potentiator: 24

Results for Nc1nc(Cl)c2ncn(C3OC(CO)C(O)C3O)c2n1 (centres undefined) ?
Sfp inh: 14%; CtBP-E1A blk: 11; D2 potentiator: -8; Six1-Eya2 blk: 5; PINK1 modulator: -0.8%&0.2%; D2 agonist: -0.4; TRPV1 potentiator: 27

Results for O=C(NCc1ccc(Cl)cc1)c1cc(=O)[nH]c2ccccc12 ?
Sfp inh: 2%; CtBP-E1A blk: 4; D2 potentiator: -6; Six1-Eya2 blk: 10; PINK1 modulator: 2.8%; D2 agonist: -4.8; TRPV1 potentiator: -4

How did O=C(c1cccc(C(F)(F)F)c1)N1CCC(O)(CS(=O)(=O)Cc2ccccc2Cl)CC1 do in these assays?
Sfp inh: 11%; CtBP-E1A blk: 9; D2 potentiator: -1; Six1-Eya2 blk: 2; PINK1 modulator: 29%[38.3 µM]; D2 agonist: -2.5; TRPV1 potentiator: -12

What do the screens show for `CC1CCc2cc(F)ccc2N1C(=O)c1cccnc1` (centres undefined)?
Sfp inh: 0%; CtBP-E1A blk: 1; D2 potentiator: -2; Six1-Eya2 blk: 15; PINK1 modulator: -0.1%; D2 agonist: -0.8; TRPV1 potentiator: 2

What do the screens show for `COC(C(=O)Nc1ccc(F)cc1F)c1ccccc1` (centres undefined)?
Sfp inh: 1%; CtBP-E1A blk: 9; D2 potentiator: -9; Six1-Eya2 blk: 5; PINK1 modulator: 1.6%; D2 agonist: -1.7; TRPV1 potentiator: -11

How did COC(=O)c1ccc(C(=O)OC)c(NC(=O)COC(=O)C2CC2C)c1 (centres undefined) do in these assays?
Sfp inh: 0%; CtBP-E1A blk: 10; D2 potentiator: -6; Six1-Eya2 blk: -5; PINK1 modulator: 1.4%; D2 agonist: -2.9; TRPV1 potentiator: 12

How did COc1cc(C(NC=O)C(=O)Nc2c(C)cccc2C)ccc1O (centres undefined) do in these assays?
Sfp inh: 18%; CtBP-E1A blk: 6; D2 potentiator: -1; Six1-Eya2 blk: 1; PINK1 modulator: 1.7%; D2 agonist: -8.6

How did CSCC[C@H](NC(=O)OC(C)(C)C)C(=O)N/N=C/c1ccc2nccnc2c1 do in these assays?
Sfp inh: 9%; CtBP-E1A blk: -8; D2 potentiator: -6; Six1-Eya2 blk: -25; PINK1 modulator: -0.9%; D2 agonist: -6.7; TRPV1 potentiator: 5

Results for O=C(CCc1nc2ccccc2c(=O)[nH]1)N1CCN(S(=O)(=O)c2ccc(Cl)c(C(F)(F)F)c2)CC1 ?
CtBP-E1A blk: -3; D2 potentiator: -9; Six1-Eya2 blk: 3; PINK1 modulator: 1.7%; D2 agonist: -2.0; TRPV1 potentiator: -8

What do the screens show for `N#Cc1ccc(Oc2cccnc2)cc1C#N`?
Sfp inh: 21%; CtBP-E1A blk: 7; D2 potentiator: 11; Six1-Eya2 blk: 2; PINK1 modulator: -1.6%; D2 agonist: -2.2; TRPV1 potentiator: -8

Results for CC(C)C(=O)Nc1ccccc1N1CCN(S(C)(=O)=O)CC1 ?
Sfp inh: 19%; CtBP-E1A blk: -9; D2 potentiator: -10; Six1-Eya2 blk: -10; PINK1 modulator: -1.5%; D2 agonist: -1.1; TRPV1 potentiator: 2

Results for CCc1cc2c(Nc3ccc(O)cc3)nc(C)nc2s1 ?
Sfp inh: -15%; CtBP-E1A blk: 3; D2 potentiator: 0; Six1-Eya2 blk: -6; PINK1 modulator: 1.0%; D2 agonist: -1.3; TRPV1 potentiator: -14

Results for O=C(COc1ccc(-n2cnnn2)cc1)NC1CCCCC1 ?
Sfp inh: 18%; CtBP-E1A blk: 12; D2 potentiator: -6; Six1-Eya2 blk: -1; PINK1 modulator: 1.9%; D2 agonist: -2.9; TRPV1 potentiator: -21

What do the screens show for `CCOc1cc(/C=C2\SC(=NC)N(C)C2=O)cc(Cl)c1OC(C)=O`?
Sfp inh: -8%; CtBP-E1A blk: -3; D2 potentiator: -3; Six1-Eya2 blk: -11; PINK1 modulator: inconclusive; D2 agonist: 0.9; TRPV1 potentiator: -19

Results for Cc1ccc(NC(=S)N2CCCCCC2)cc1 ?
Sfp inh: -5%; CtBP-E1A blk: -2; D2 potentiator: -4; Six1-Eya2 blk: 2; PINK1 modulator: 0.4%; D2 agonist: -3.7

What do the screens show for `CSc1ccccc1NC(=O)CN(C)CC(=O)Nc1ccccc1F`?
Sfp inh: -29%; CtBP-E1A blk: 5; D2 potentiator: -9; Six1-Eya2 blk: 4; PINK1 modulator: 0.6%; D2 agonist: -1.0; TRPV1 potentiator: 0

What do the screens show for `CSc1nnc(C)c(/C=C/NOCc2ccc(Cl)cc2)n1`?
Sfp inh: 14%; CtBP-E1A blk: -2; D2 potentiator: -37; Six1-Eya2 blk: -6; PINK1 modulator: -1.9%; D2 agonist: -12; TRPV1 potentiator: 3

What do the screens show for `O=C(OCC(=O)N1CCc2ccccc21)[C@@H]1CC(O)CN1S(=O)(=O)c1ccccc1[N+](=O)[O-]` (some centres undefined)?
CtBP-E1A blk: 4; D2 potentiator: -10; Six1-Eya2 blk: -10; PINK1 modulator: 0.0%; D2 agonist: 0.0

What do the screens show for `CCn1cc(CNC(=O)/C=C/c2cnn(C)c2)c(C)n1`?
Sfp inh: 13%; CtBP-E1A blk: -14; D2 potentiator: 1; Six1-Eya2 blk: -15; PINK1 modulator: 0.3%; D2 agonist: -2.4; TRPV1 potentiator: -8

What do the screens show for `COC(=O)c1c(C)oc(C)c1S(=O)(=O)N1CCOCC1`?
Sfp inh: -4%; D2 potentiator: -1; Six1-Eya2 blk: 6; PINK1 modulator: 0.5%; D2 agonist: 3.5; TRPV1 potentiator: -5

What do the screens show for `Cn1cccc1-c1cc(C(=O)N/N=C/c2ccc(F)cc2)[nH]n1`?
Sfp inh: -3%; CtBP-E1A blk: -24; D2 potentiator: -23; Six1-Eya2 blk: -8; PINK1 modulator: 1.7%; D2 agonist: -2.0; TRPV1 potentiator: 9

Results for COc1ccc(Nc2ccc(N3C(=O)CCC3=O)cc2[N+](=O)[O-])cn1 ?
Sfp inh: 6%; D2 potentiator: -7; Six1-Eya2 blk: 4; PINK1 modulator: 0.4%; D2 agonist: -4.6; TRPV1 potentiator: 9

How did COc1ccc(-c2ccc3c(c2)[C@@H]2C[C@H](N(C)C(=O)C(C)(C)C)[C@H]([C@H](C)O)C(=O)N2CC3)cc1 do in these assays?
CtBP-E1A blk: -4; D2 potentiator: -4; Six1-Eya2 blk: 0; PINK1 modulator: -0.7%; D2 agonist: -0.7

Results for CC1(C)Oc2ccc3ccc(=O)oc3c2/C(=C/NNC(N)=S)C1=O ?
Sfp inh: -1%; CtBP-E1A blk: -29; D2 potentiator: -5; Six1-Eya2 blk: -25; PINK1 modulator: -0.5%; D2 agonist: -8.9; TRPV1 potentiator: 11

What do the screens show for `CC(=O)Nc1ccc(NC(=O)C2CC(=O)Nc3nc4ccccc4n32)cc1` (centres undefined)?
Sfp inh: -11%; CtBP-E1A blk: 7; D2 potentiator: -3; Six1-Eya2 blk: -2; PINK1 modulator: 1.4%; D2 agonist: 0.4; TRPV1 potentiator: 3

Results for CN1CCN(c2ncnc3c2cnn3-c2ccc(Cl)cc2)CC1 ?
Sfp inh: 4%; CtBP-E1A blk: 0; D2 potentiator: -3; Six1-Eya2 blk: 1; PINK1 modulator: 0.4%; D2 agonist: -1.1

Results for Cc1sccc1/C=N/NC(=O)c1ccco1 ?
Sfp inh: 22%; CtBP-E1A blk: -1; D2 potentiator: -9; Six1-Eya2 blk: -8; PINK1 modulator: 0.5%; D2 agonist: -2.5; TRPV1 potentiator: 17

What do the screens show for `O=C(O)CSCC(=O)N1CCN(Cc2ccc3c(c2)OCO3)CC1`?
Sfp inh: 14%; CtBP-E1A blk: 8; D2 potentiator: -2; Six1-Eya2 blk: 2; PINK1 modulator: 0.9%; D2 agonist: 1.8; TRPV1 potentiator: 13

What do the screens show for `Cc1ccc(C(=O)N2CCCC2)cc1S(=O)(=O)Nc1ccccc1`?
Sfp inh: 9%; CtBP-E1A blk: 5; D2 potentiator: 4; Six1-Eya2 blk: 1; PINK1 modulator: 0.0%; D2 agonist: -2.6; TRPV1 potentiator: 11

What do the screens show for `CCC1(O)C(=O)OCc2c1cc1n(c2=O)Cc2cc3c(N)cccc3nc2-1` (centres undefined)?
CtBP-E1A blk: 7; D2 potentiator: -4; Six1-Eya2 blk: -9; PINK1 modulator: -6.5%; D2 agonist: -7.3

What do the screens show for `COCCCNC(=O)CCC(=O)NNc1nc2ccccc2c2nc(C)nn12`?
Sfp inh: 11%; D2 potentiator: -7; Six1-Eya2 blk: 0; PINK1 modulator: -0.5%&0.3%; D2 agonist: 1.1; TRPV1 potentiator: 14

Results for COc1ccc(-n2nc3c(N4CCC(C(=O)NCCc5ccccc5C)CC4)nnc(C)c3c2C)cc1 ?
Sfp inh: 7%; CtBP-E1A blk: -1; D2 potentiator: -4; Six1-Eya2 blk: -2; PINK1 modulator: -0.7%; D2 agonist: -2.2; TRPV1 potentiator: -19

Results for O=C(c1cccc(S(=O)(=O)NCc2ccccc2)c1)N1CCCCC1 ?
CtBP-E1A blk: 2; D2 potentiator: -1; Six1-Eya2 blk: 2; PINK1 modulator: -3.8%; D2 agonist: 0.0; TRPV1 potentiator: -7

Compounds above with a furan ring, fused or not (2):
What do the screens show for `COC(=O)c1c(C)oc(C)c1S(=O)(=O)N1CCOCC1`?
Sfp inh: -4%; D2 potentiator: -1; Six1-Eya2 blk: 6; PINK1 modulator: 0.5%; D2 agonist: 3.5; TRPV1 potentiator: -5

Results for Cc1sccc1/C=N/NC(=O)c1ccco1 ?
Sfp inh: 22%; CtBP-E1A blk: -1; D2 potentiator: -9; Six1-Eya2 blk: -8; PINK1 modulator: 0.5%; D2 agonist: -2.5; TRPV1 potentiator: 17

The order is random, and some 3.7% of all compounds hit somewhere here.
